# Calb FLC – C. albicans growth inhibition with fluconazole, primary screen, CaCi-2 strain, Alamar Blue fluorescence; hit rate 0.57% among 300,000; growth inhibition, % (concentration not given with the values); C. albicans CaCi-2 (fluconazole-resistant clinical isolate) + fluconazole, 48 h;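 active = most replicates above 75%; inconclusive = exactly half above 75%; inactive = most below 75%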;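 also: all wells also contain fluconazole at 8 µg/ml as a sub-toxic cotreatment; 0% = median of DMSO wells and 100% = median of geldanamycin control wells; wells of about 8 µL received 7.5 nL stock; the first replicate is given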
# Vif TR-FRET – inhibitors of Vif binding to APOBEC3G peptide, primary screen, biochemical, TR-FRET, GST-Vif 1-94, biotin-A3G peptide, dose response retest (AID 1117319) | TR-FRET GST-Vif / biotin-A3G peptide binding; higher % means a stronger effect; test concentration not given here; strong numbers were not always called active | one-dose inhibition, %; IC50 in µM for titrated hits | hit rate 0.57% among 260,000;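 active = above the screen mean plus three standard deviations and confirmed in dose response; inconclusive = results disagree or hit not tested in dose response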;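 also: Vif residues 1-94 fused to GST binding biotinylated APOBEC3G peptide 110-148; 0% = full assay without inhibitor and 100% = GST in place of GST-Vif; retest series ran down from 100 µM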
# LANA-H2A inh – blockers of LANA interaction with H2A/H2B – biochemical, FP readout, HTS, primary screen; AID 2629, 2010; hit rate 0.6% among 320,000; inhibition, % (no concentration beside the values); cell-free LANA-H2A/H2B peptide, fluorescence polarization; in the data active = inhibition mostly above about 10%, no sharp cut-off; inactive = mostly below about 6.7%;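 also: stock transfer was 7.5 nL into about 10 µL; 0% = median of vehicle wells and 100% = median of positive control wells; one replicate is shown; the record names a cut of 25% in any replicate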
# HNF4A DNA FP – change in binding of human HNF4A to DNA, primary screen, biochemical, fluorescence polarization, FITC-DNA | Hepatocyte nuclear factor 4-alpha (Homo sapiens), P41235 | hit rate 0.3% among 360,000 | activity change, % at 10 µM | 1 h; in the data active = activity change above about 30%, passing the limit was not always enough;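 also: controls were the assay level and a saturating level of protein; the project sought stronger binding though the title names inhibitors; some compounds called inactive have numbers as strong as hits; positive values seem to mean higher polarization but the record does not say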
# Target sequence (P41235 whole entry, looked up): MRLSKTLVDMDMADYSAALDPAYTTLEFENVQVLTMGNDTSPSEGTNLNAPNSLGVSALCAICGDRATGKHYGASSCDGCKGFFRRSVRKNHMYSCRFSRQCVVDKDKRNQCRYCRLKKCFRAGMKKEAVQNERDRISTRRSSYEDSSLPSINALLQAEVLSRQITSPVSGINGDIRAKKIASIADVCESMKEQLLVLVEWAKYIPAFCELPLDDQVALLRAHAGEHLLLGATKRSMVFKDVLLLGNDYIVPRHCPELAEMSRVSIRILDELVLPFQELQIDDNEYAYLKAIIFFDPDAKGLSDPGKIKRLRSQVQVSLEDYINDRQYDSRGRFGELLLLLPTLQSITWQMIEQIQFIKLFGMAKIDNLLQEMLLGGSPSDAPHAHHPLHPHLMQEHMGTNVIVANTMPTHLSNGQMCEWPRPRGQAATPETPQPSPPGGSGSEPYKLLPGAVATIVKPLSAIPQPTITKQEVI
# RanGTP-Imp inh – inhibitors of RanGTP-importin-beta interaction, primary screen, biochemical, FRET, CFP-Ran, YFP-importin-beta, homogeneous. cell-free CFP-Ran/YFP-importin-beta FRET ratio. inhibition, % (test concentration not listed). hit rate 1.1% among 300,000;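 active = most replicates above 15%; inconclusive = exactly half above 15%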;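 also: 0% = DMSO wells and 100% = Ran loaded with GDP instead of GTP; wells of about 40 µL received 100 nL stock; the first replicate is given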
# ALR inh – inhibitors of human ALR sulfhydryl oxidase, primary screen, biochemical, H2O2 detection, HRP-luminol luminescence, single point | AID 485317, 2010 | inhibition, % (concentration not given with the values) | FAD-linked sulfhydryl oxidase ALR (Homo sapiens), P55789 | hit rate 3.8% among 290,000 | purified ALR, DTT oxidation;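 active = mean and each replicate at 75% or more; inconclusive = only one of the two met; inactive = neither met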;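 also: stock transfer was 7.5 nL into about 7.5 µL; 0% = neutral wells and 100% = wells with inactivated enzyme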
# Target sequence (P55789 whole entry, looked up): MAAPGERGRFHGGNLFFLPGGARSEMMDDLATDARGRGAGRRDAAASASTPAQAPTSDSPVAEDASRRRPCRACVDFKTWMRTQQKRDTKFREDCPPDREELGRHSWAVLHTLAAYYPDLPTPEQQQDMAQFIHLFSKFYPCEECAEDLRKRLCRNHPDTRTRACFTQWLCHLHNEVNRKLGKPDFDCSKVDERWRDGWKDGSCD
# B2AR ag – beta2AR agonists driving receptor internalization, primary screen, cell-based, FAP fluorogen, flow cytometry; response, % (concentration not given with the values); Am2.2-beta2AR cells; reference of the scale not given here; Beta-2 adrenergic receptor (Homo sapiens), P07550; AID 504454, 2011; hit rate 0.43% among 340,000;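 active = response above a set limit, near 3 SD of response in nonfluorescent compounds, cut at about 42% in these data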;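 also: stock transfer was 100 nL into about 11 µL; a reference agonist was the positive control; negative values mostly stem from fluorescent compounds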
# * = called active by the depositor; u = inconclusive; x = no result given. This is a random part of the collection; about 6.3% have a hit in one of these screens.
[1] CN(Cc1cccnc1)C(=O)CCCc1c[nH]c2ccccc12
[2] COc1cccc(/C=N/NC(=O)C(=O)N2CCCCCC2)c1OC
[3] O=C(Cc1ccc(NC2=NC3CS(=O)(=O)CC3S2)cc1)Nc1ccc(F)cc1 (stereo not given)
[4] COc1ccc(F)cc1S(=O)(=O)NC1CC(C)(C)NC(C)(C)C1
[5] O=C(NNS(=O)(=O)c1ccc(Br)cc1)C1CCCCC1
[6] CC(=O)N1C(c2ccccc2)CC(=O)OC1c1ccc2c(c1)OCO2 (stereo not given)
[7] COc1ccc(CN2CCNC(=O)C2CC(=O)NC2CCCCCCC2)cc1C (stereo not given)
[8] Cc1cc(=O)oc2cc(OCC(=O)N3CCOCC3)c(Cl)cc12
[9] O=C(Nc1ccc(Cl)cc1)c1ccc2snnc2c1
[10] O=C(COC(=O)c1cncc(Br)c1)Nc1ccc2c(c1)OCO2
compound no.	1	2	3	4	5	6	7	8	9	10
Calb FLC	-2	-3	1	-27	-10	-1	-4	x	-2	7
Vif TR-FRET	x	x	x	-3%	3%	7%	9%	x	x	x
LANA-H2A inh	0.6	-0.6	-4.2	-0.4	-4.9	0.7	-2.8	6.3	-2.2	-1.9
HNF4A DNA FP	1.2	2.1	2.8	2.8	-2.0	3.4	4.1	-0.3	-0.5	6.5
RanGTP-Imp inh	-1.6	0.9	-4.6	-0.8	6.8	0.2	0.2	x	-0.5	1.0
ALR inh	47	-3	-10	-19	20	1	-2	x	-9	-5
B2AR ag	0	2	-7	5	-8	-7	1	0	1	1

# Single records, as listed above. Order of values: Calb FLC, Vif TR-FRET, LANA-H2A inh, HNF4A DNA FP, RanGTP-Imp inh, ALR inh, B2AR ag
# `O=C(NNS(=O)(=O)c1ccc(Br)cc1)C1CCCCC1` across the screens: -10, 3%, -4.9, -2.0, 6.8, 20, -8
# `COc1ccc(CN2CCNC(=O)C2CC(=O)NC2CCCCCCC2)cc1C` (stereo not given) across the screens: -4, 9%, -2.8, 4.1, 0.2, -2, 1
# `O=C(Nc1ccc(Cl)cc1)c1ccc2snnc2c1` across the screens: -2, x, -2.2, -0.5, -0.5, -9, 1
# `CN(Cc1cccnc1)C(=O)CCCc1c[nH]c2ccccc12` across the screens: -2, x, 0.6, 1.2, -1.6, 47, 0
# `O=C(COC(=O)c1cncc(Br)c1)Nc1ccc2c(c1)OCO2` across the screens: 7, x, -1.9, 6.5, 1.0, -5, 1

# Molecules from the list above with fluorine:
[3] O=C(Cc1ccc(NC2=NC3CS(=O)(=O)CC3S2)cc1)Nc1ccc(F)cc1 (stereo not given)
[4] COc1ccc(F)cc1S(=O)(=O)NC1CC(C)(C)NC(C)(C)C1
compound no.	3	4
Calb FLC	1	-27
Vif TR-FRET	x	-3%
LANA-H2A inh	-4.2	-0.4
HNF4A DNA FP	2.8	2.8
RanGTP-Imp inh	-4.6	-0.8
ALR inh	-10	-19
B2AR ag	-7	5

# Continuation:
[11] CCN(Cc1ccccc1)C(=O)C1CCN(Cc2ccc(SC)cc2)CC1
[12] CCOC(=O)N1CCN(C(=S)Nc2ccc(C)c(C)c2)CC1
[13] Cn1ncc(Cl)c1C(=O)N/N=C/c1ccccn1
[14] O=C(NCC1CCCO1)c1ccc(CNS(=O)(=O)c2ccc(F)c(Cl)c2)cc1 (stereo not given)
[15] CCOC(=O)Nc1ccc(C(N)=O)cc1
[16] CCOc1ccc2nc(NS(=O)(=O)Cc3ccccc3)sc2c1
[17] O=C1c2nccnc2C(=O)N1c1ccc(F)cc1
[18] CCc1c(C)n2nc(C)cc2[nH]c1=O
[19] O=C(COC(=O)c1ccccn1)NCc1cccs1
[20] Cc1c(C(=O)C(=O)NCc2cccs2)c2ccccc2n1C
compound no.	11	12	13	14	15	16	17	18	19	20
Calb FLC	-5	-8	22	10	48	72	6	8	4	-20
Vif TR-FRET	-6%	-2%	0%	7%	-2%	6%	x	u	x	-9%
LANA-H2A inh	3.4	1.0	3.9	5.3	2.2	0.4	-2.6	1.9	-0.2	1.7
HNF4A DNA FP	1.8	1.8	-2.5	0.8	1.0	-2.7	0.8	2.1	0.8	3.6
RanGTP-Imp inh	2.5	0.2	-0.9	2.5	-5.0	0.7	x	0.3	x	0.3
ALR inh	9	-11	-9	0	-4	47	-6	22	-4	0
B2AR ag	-1	5	8	3	6	15	4	2	3	-4

[21] C#CCSc1nnnn1-c1ccc(Br)c(C)c1
[22] O=c1c2cc(Br)ccc2[nH]c(=S)n1Cc1ccccc1
[23] O=C(CCCCCCCC(=O)N1CCCCC1)N1CCCCC1
[24] Cc1ccc2c(C)c(C(=O)NCCN3CCCC(O)C3)oc2c1C (stereo not given)
[25] O=C(CSc1nc2ccccc2o1)N1c2ccccc2Sc2ccc(Cl)cc21
[26] C/C(=N\NC(=O)CCCCCNC(=O)c1ccccc1)c1ccccc1O
[27] O=S(=O)(Nc1ccc(S(=O)(=O)Nc2ccccc2)cc1)c1ccccc1
[28] CCOC(=O)N1CCN(C(=O)CCCn2nc(C)c3sc4ccccc4c3c2=O)CC1
[29] COc1ccc(/C=C/c2cc(C(F)(F)F)on2)cc1
[30] CCN(CC)c1ccc(NC(=O)C2CCCN(S(=O)(=O)c3cccnc3)C2)c(C)c1 (stereo not given)
compound no.	21	22	23	24	25	26	27	28	29	30
Calb FLC	-15	-7	x	-7	22	9	-6	-22	-8	-2
Vif TR-FRET	24%	-8%	3%	-1%	1%	-18%	2%	u	11%	-1%
LANA-H2A inh	0.9	11	x	-1.5	-3.8	2.1	-0.1	-1.9	4.7	-3.2
HNF4A DNA FP	0.5	0.7	4.7	3.3	3.3	-0.4	4.2	-0.1	-0.6	3.8
RanGTP-Imp inh	-5.1	1.7	x	-0.1	-1.5	1.3	-2.0	-2.6	0.5	0.4
ALR inh	-2	x	x	-4	-2	-2	x	-10	1	99*
B2AR ag	4	-16	-10	9	-4	3	-2	-9	12	10

[31] O=C(O)CSc1nnc2c(n1)[nH]c1ccccc12
[32] O=c1cc(O)sc2ccccc12
[33] O=C(CSc1ccccc1)N1CCN(C(=O)c2ccco2)CC1
[34] CCc1ccc2oc(C(=O)Nc3cccnc3)c(C)c2c1
[35] CN(Cc1cccc(C(F)(F)F)c1)Cc1nc(-c2cnccn2)no1
[36] Cc1ccc(OCC(=O)Nc2ccccc2C(=O)N2CCCCC2)cc1
[37] CC(C)CCNC(=O)CN(Cc1ccccc1Cl)C(=O)CCC(=O)Nc1ccccn1
[38] Nc1nc(-c2ccccc2)c(N=Nc2cccnc2)s1
[39] CC1(c2cnc(Nc3ccccc3)s2)CCC(=O)O1 (stereo not given)
[40] Cc1ccc(S(=O)(=O)N(C)c2ccc(N)cc2)cc1
compound no.	31	32	33	34	35	36	37	38	39	40
Calb FLC	u	-6	-7	45	0	-26	-12	27	-9	0
Vif TR-FRET	-4%	8%	0%	x	0%	-8%	x	-11%	1%	4%
LANA-H2A inh	-0.3	4.5	6.2	-3.3	5.9	0.4	-0.2	0.8	3.5	-3.1
HNF4A DNA FP	-0.6	0.6	-2.9	0.5	0.4	-2.9	0.0	3.7	-0.6	6.1
RanGTP-Imp inh	3.3	16*	-1.4	1.0	2.4	1.6	1.1	-4.8	-0.6	-5.0
ALR inh	-3	3	-11	-5	-13	-3	-5	-4	97*	-17
B2AR ag	0	1	8	-10	6	-3	1	-3	-11	1

[41] COc1ccc(NC(=O)NC(C)C2CC3CCC2C3)cc1 (stereo not given)
[42] CC1CCN(C(=O)CSc2nnc(-c3cc4ccccc4cc3O)n2Cc2ccco2)CC1
[43] Cc1ccc(S(=O)(=O)N[C@@H](Cc2ccccc2)C(=O)N2CCC[C@@H]2C(=O)O)cc1
[44] NS(=O)(=O)c1ccc(NC(=O)CSc2ncnc3ccccc23)cc1
[45] O=C(O)/C=C\c1cccc(-n2nnnc2SCc2ccccc2F)c1
[46] COc1cccc(NC(=O)C(NCCc2ccc(S(N)(=O)=O)cc2)c2ccccc2)c1 (stereo not given)
[47] Oc1ccc(/C=N/N=C/c2ccc(O)c(O)c2)cc1O
[48] CSCCC(NC(=O)OCc1ccccc1)C(=O)NCc1cccnc1 (stereo not given)
[49] COc1ccc(-c2cc(C(=O)N3CCN(c4ccccc4OC)CC3)no2)cc1OC
[50] COc1ccc(/C=C/C(=O)C(C)(C)C)cc1OC
compound no.	41	42	43	44	45	46	47	48	49	50
Calb FLC	1	10	3	-26	23	-20	-3	-6	0	-9
Vif TR-FRET	x	15%	5%	-46%	-4%	x	4.8µM*	-2%	8%	-6%
LANA-H2A inh	7.8	-3.8	2.9	12	-2.0	4.5	7.1	-0.3	0.9	4.0
HNF4A DNA FP	5.0	12	2.4	-0.6	-2.4	1.7	-9.4	0.7	-0.8	1.4
RanGTP-Imp inh	-1.5	39*	-1.5	x	0.5	3.0	-1.5	3.2	2.1	1.7
ALR inh	-4	x	-13	-4	2	2	99*	-5	3	-14
B2AR ag	3	-2	4	-3	5	-1	1	0	-6	1

[51] O=C(NCc1ccc(Cl)cc1)C(=O)NCC(c1cccnc1)N1CCN(c2ccc(F)cc2)CC1 (stereo not given)
[52] Cc1ccc(S(=O)(=O)N(C)Cc2cc3ccccc3[nH]c2=O)cc1
[53] CCC1NC(=S)N(C2CCCCC2)C1=O (stereo not given)
[54] O=c1cc(O)c2c(=O)n(-c3ccccc3)c3c(c2o1)CCCCCC3
[55] CCOC(=O)N1CCN(C(=O)c2cccn3c(=O)c4cc(Cl)ccc4nc23)CC1
[56] O=C(O)c1ccc2c(=O)n(-c3ccccc3F)c(=S)[nH]c2c1
[57] O=C(Nc1ccccc1)/C(=C\c1ccncc1)NC(=O)c1ccccc1
[58] Cc1cc(C(=O)Nc2c[nH]c(=O)[nH]c2=O)ccc1[N+](=O)[O-]
[59] O=C(COC(=O)CNC(=O)c1ccccc1)NCc1ccc2c(c1)OCO2
[60] CCOc1ccccc1NC(=O)NC1(C(=O)NCc2cccnc2)CCCCC1
compound no.	51	52	53	54	55	56	57	58	59	60
Calb FLC	20	0	1	-1	21	-1	24	-3	x	0
Vif TR-FRET	-4%	-11%	1%	-3%	2%	-7%	22%	11%	x	x
LANA-H2A inh	-7.1	2.8	-0.1	-5.0	-9.0	2.3	-0.9	2.5	1.4	-0.3
HNF4A DNA FP	-1.8	1.1	5.7	4.9	-1.6	-1.3	1.3	0.1	3.5	0.2
RanGTP-Imp inh	-0.2	0.0	4.9	7.1	12	0.0	-0.6	5.9	x	-0.3
ALR inh	6	-8	7	13	-1	x	x	7	-1	-5
B2AR ag	8	-29	0	12	-7	6	-6	-2	4	-2

# Screen by screen, as entered above:
# Entries 5 to 9 in B2AR ag: -8, -7, 1, 0, 1
# Entries 5 to 9 in Calb FLC: -10, -1, -4, x, -2

# Compound activity as filed in PubChem BioAssay.
